HepG2 viability – viability loss in HepG2 hepatoma cells – cell-based, ATP luminescence, cherry-pick, activator set 2, cytotoxicity control, dose response (AID 1053143) | HepG2 viability, CellTiter-Glo ATP luminescence, 72 h | AC50 in µM for hits, for the others activity change, negative = cytotoxicity, % at the top dose, mostly 26 µM | actives 3.7% (n = 3,400);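 active = fitted AC50 at most twice the highest valid dose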;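 also: 0 = neutral control and -100 = positive control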
* hit, by the source's call. Only part of the results is shown. The share of hits here may be higher or lower than overall.

SMILES | HepG2 viability
O=C1c2ccccc2-c2cc3ccccc3cc21 | -17%
c1ccc2c(c1)CSc1ccccc1C2C1=NCCN1 (stereo not given) | 2%
CC1CCN(C(CC(=O)c2ccccc2)C(=O)c2ccccc2)CC1 (stereo not given) | 3%
Cc1ccc2c(c1N)C(=O)c1ccccc1C2=O | -3%
COc1ccc(CCN(C)Cc2ccc(F)cc2F)cc1OC | -6%
Fc1cccc(F)c1-c1nc(-c2ccc(Cl)cc2)no1 | -13%

2 of the compounds above, field by field:
CC1CCN(C(CC(=O)c2ccccc2)C(=O)c2ccccc2)CC1 (stereo not given)
  HepG2 viability = 3%
Cc1ccc2c(c1N)C(=O)c1ccccc1C2=O
  HepG2 viability = -3%

Random excerpt: 2 entries already listed, in no set order.
SMILES | HepG2 viability
CC1CCN(C(CC(=O)c2ccccc2)C(=O)c2ccccc2)CC1 (stereo not given) | 3%
COc1ccc(CCN(C)Cc2ccc(F)cc2F)cc1OC | -6%

Screening results: PubChem BioAssay, Broad Institute
